# Assay outcomes (PubChem BioAssay)
# Calb biofilm kill = clotrimazole potentiators killing C. albicans biofilm, primary screen, 4-compound mixtures | 120,000 tested, 0.02% active | AID 1242, 2008 | inhibition, % at 7.6 µM | C. albicans biofilm persisters + clotrimazole, fluorescence viability; primary screen in compound mixtures of four per well;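 active means inhibition above 30.3% in the primary screen of four-compound pools, then above 30% when the compound was retested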;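 further: compounds exposed to preformed 24 h biofilms for 48 h; the number belongs to the whole pool; some results filed as inactive read as strong as hits; inactives centre near 12; 0% = biofilm with clotrimazole alone and 100% = kill control; retested singly at about 60 µM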
#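 Test system: C. albicans biofilms. Buffer or medium: RPMI/MOPS medium, pH 7.0. Timing: 48 h compound exposure at 37 °C. Technique: Alamar Blue fluorescence. Evaluation: percent inhibition of biofilm viability.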
# Active calls of the source: *. Only part of the results is shown; the hit share may differ from the screen's.
SMILES,Calb biofilm kill
CCCCOC(=O)c1ccc(N)cc1,9.8
Cc1oncc1C(=O)Nc1ccc(C(F)(F)F)cc1,14.8
CN1CCC(=C2c3ccccc3CC(=O)c3sccc32)CC1,25.7
CCOc1ccc(NC(=S)N2CCC(C(O)(c3ccccc3)c3ccccc3)CC2)cc1,-6.7
O=C(O)CCCCCCCC(=O)O,-4.1
CCCN(CCC)C(=O)C(CCC(=O)O)NC(=O)c1ccccc1 (centres undefined),11.8
CN(C)CCOC(=O)C(c1ccccc1)C1(O)CCCC1 (centres undefined),9.4
CCC12CCCN3CCc4c(n(c5ccccc45)C(O)(C(=O)OC)C1)C32 (centres undefined),17.4
OCC(O)CN1CCN(c2ccccc2)CC1 (centres undefined),8.3
OCCOCCN1CCN(C(c2ccccc2)c2ccc(Cl)cc2)CC1 (centres undefined),12.9
CN(C)C(=N)N=C(N)N,5.9
C/C=C(/C)C(=O)O[C@@H]1c2cc3c(c4c2[C@@]2(CO4)C(=O)C(OC)=C(OC)C=C2C[C@@H](C)[C@H]1C)OCO3,14.7
CCN(CC)CCOC(=O)C(c1ccccc1)c1ccccc1,13.8
O=C1CCc2cc(OCCCCc3nnnn3C3CCCCC3)ccc2N1,9.4
O=C(c1ccccc1)c1ccc2n1CCC2C(=O)O (centres undefined),6.8

# Given with each value named: part of the list above.
CCCCOC(=O)c1ccc(N)cc1
  Calb biofilm kill: 9.8
O=C(O)CCCCCCCC(=O)O
  Calb biofilm kill: -4.1
OCC(O)CN1CCN(c2ccccc2)CC1 (centres undefined)
  Calb biofilm kill: 8.3

# By substructure, the entries above with a carbonyl joined to an NH by a bond outside any ring
SMILES,Calb biofilm kill
Cc1oncc1C(=O)Nc1ccc(C(F)(F)F)cc1,14.8
CCCN(CCC)C(=O)C(CCC(=O)O)NC(=O)c1ccccc1 (centres undefined),11.8

# Other entries.
SMILES,Calb biofilm kill
COc1cc2c(c(OC)c1OC)-c1c(cc(OC)c(OC)c1OC)C[C@H](C)[C@H](C)C2,4.7
COc1cc(C)nc(-n2nc(C)cc2OC)n1,12.7
CC1(C)Oc2ccc(C#N)cc2[C@@H](N2CCCC2=O)[C@@H]1O,3.5
CN=C(N)NC(=O)Nc1c(C)cccc1C,11.8
Cc1cc(O)c2c(c1)C(=O)c1cccc(O)c1C2=O,11.4
Oc1cc2c(cc1O)C1c3ccc(O)c(O)c3OCC1(O)C2 (centres undefined),20.5
Cc1ccsc1/C=C/C1=NCCCN1C,18.2

# Not a retest: entries from further up.
SMILES,Calb biofilm kill
COc1cc2c(c(OC)c1OC)-c1c(cc(OC)c(OC)c1OC)C[C@H](C)[C@H](C)C2,4.7
COc1cc(C)nc(-n2nc(C)cc2OC)n1,12.7
CC1(C)Oc2ccc(C#N)cc2[C@@H](N2CCCC2=O)[C@@H]1O,3.5
CN=C(N)NC(=O)Nc1c(C)cccc1C,11.8
